# Screens as filed in PubChem.
# StopGo RLuc = Primary qHTS Assay for Foot and Mouth Disease Virus Antivirals against NCGC Sytravon and CBC Compound Libraries: Renilla Luciferase Signal; HEK cells with a luciferase reporter of 2A StopGo recoding; Potency, µM (top dose mostly 57.5 µM), for inactives: at the highest dose signal change, negative = less light; actives 0.32% (n = 120,000); AID 1745857, 2022; active means well fitted falling curve with a large enough effect; inconclusive means small, poorly fitted or top-dose-only effect; inactive means no such curve, though single readings can be large or run the other way; note: nearly all actives have a fitted effect of over 55% in size; overnight with compound
# StopGo FLuc = Primary qHTS Assay for Foot and Mouth Disease Virus Antivirals against NCGC Sytravon and CBC Compound Libraries: Firefly Luciferase Signal; HEK cells with a luciferase reporter of 2A StopGo recoding; actives 0.23% (n = 120,000); Potency, µM (doses to about 57.5 µM), for inactives: at the top dose signal change, negative = less light; active = well fitted falling curve with a large enough effect; inconclusive = small, poorly fitted or top-dose-only effect; inactive = no such curve, though single readings can be large or run the other way; note: nearly all actives have a fitted effect of over 60% in size; overnight with compound
# * marks the source's active call; other numbers are inactive results; ? = inconclusive; [ ] = remark or other dose. % is set by controls: 0 for no effect and ±100 for the full control effect; potency is the fitted concentration of half-maximal effect. Some of the compounds tested, so the mix of outcomes need not match the whole.
canonical_smiles | StopGo RLuc | StopGo FLuc
CCN(Cc1cn(Cc2ccc(C)cc2)nn1)S(=O)(=O)c1ccccc1Br | 3% | 0%
Cc1ccc(CNC(=O)Cc2c(C(=O)O)c(C)cn2C)cc1 | -12% | -14%
Cc1ccc(NC(=O)c2ccc3c(c2)NC(=O)CS3)cc1C | -3% | 0%
Cc1ccccc1Nc1c(-c2c(F)cccc2Cl)nc2ccc(Br)cn12 | 11% | -9%
COc1ccccc1N1CCN(CCCNC(=O)c2cnn(-c3ccccc3)c2C2CCN(C(=O)OC(C)(C)C)CC2)CC1 | -14% | -24%
COc1ccc(-c2cn3nc(N4CCC(C(=O)Nc5ccc(Cl)cc5C)CC4)sc3n2)cc1 | -20% | 33%[activator]
Cc1ccc(S(=O)(=O)CC(=O)c2ccc(F)cc2)cc1C | 182%[activator] | 23%
COc1ccccc1-c1nc(C#N)c(NCCN2CCOCC2)o1 | -9% | 6%
Fc1cccc(-c2nc(CN3CCCC3c3ccsc3)co2)c1 (stereo not given) | -6% | 24%
CCCCCCCCN1C(=O)[C@@H](CC(=O)NCc2cccc3ccccc23)C[C@@]2(C(=O)OC)C1=C[C@H](C(C)C)O[C@@H]2C1CC1 | 1% | 0%
Cc1ccc(Cc2nc3ccccc3nc2SCC(=O)NCc2ccc(F)cc2)cc1 | 2% | -8%
Cc1ccc(-c2csc(-c3ccccc3)n2)cc1C | 13% | 196%[activator]
COc1ccc(S(=O)(=O)N2N=C(c3cccc(NS(C)(=O)=O)c3)CC2c2ccccc2C)cc1 (stereo not given) | 235%[activator] | 22%
Cc1ccc2nc(-c3ccc(NC(=O)Cc4ccccc4)cc3)sc2c1 | 2% | 151%[activator]
CCn1c(SCc2ccccc2Cl)nnc1-c1ccccn1 | 64%[activator] | 40%[activator]
O=C(Oc1ccc2c(c1)O/C(=C\c1cccs1)C2=O)c1ccco1 | 16% | 210%[activator]
O=C(Nc1ccc(Br)cc1F)c1ccc2nc(N3CCCCC3)sc2c1 | 4% | ?
COCCn1c(CCC(=O)Nc2cc(C)ccc2C)nc2cccnc21 | -11% | -1%
Cc1ccc(NC(=O)N2CCN(C3=Nc4ccccc4Oc4ccccc43)CC2)c(Cl)c1 | -6% | -7%
CCN(Cc1ccc(Cl)s1)C(=O)Cn1nnc(-c2cccc(C(F)(F)F)c2)n1 | -12% | -16%
CC(Oc1ccc2ccc(=O)oc2c1)C(=O)Nc1ccc(F)c(F)c1 (stereo not given) | -9% | -9%
COc1ccc(/C=C/C(=O)NC2CC2)cc1 | 21% | 0%
Cc1ccc(C)c(-c2cc(C(=O)NC3CCCC3)c3cc(Br)ccc3n2)c1 | 9% | -8%
O=Cc1c(-c2ccc(Cl)cc2Cl)[nH]c2ccccc12 | -10% | 132%[activator]
CCOc1ccccc1NC(=O)Cn1c(=O)n(Cc2nc(C)no2)c(=O)c2ccccc21 | -8% | 17%

# Six records drawn at random from the list so far, as already listed:
canonical_smiles | StopGo RLuc | StopGo FLuc
Cc1ccc(Cc2nc3ccccc3nc2SCC(=O)NCc2ccc(F)cc2)cc1 | 2% | -8%
Cc1ccc(NC(=O)N2CCN(C3=Nc4ccccc4Oc4ccccc43)CC2)c(Cl)c1 | -6% | -7%
Cc1ccc(NC(=O)c2ccc3c(c2)NC(=O)CS3)cc1C | -3% | 0%
O=C(Oc1ccc2c(c1)O/C(=C\c1cccs1)C2=O)c1ccco1 | 16% | 210%[activator]
COc1ccc(S(=O)(=O)N2N=C(c3cccc(NS(C)(=O)=O)c3)CC2c2ccccc2C)cc1 (stereo not given) | 235%[activator] | 22%
COCCn1c(CCC(=O)Nc2cc(C)ccc2C)nc2cccnc21 | -11% | -1%

# Following part
canonical_smiles | StopGo RLuc | StopGo FLuc
COc1ccc(CN(C)Cc2cc(=O)oc3c(C)c(C)ccc23)cc1 | 0% | 0%
CCN(Cc1ccccc1)C(=O)C(CC(C)C)NS(=O)(=O)c1ccc2c(c1)CCN2C(C)=O (stereo not given) | 34%[activator] | -22%
CCCCN(CCCC)C1=C(C(=O)c2ccccc2)N(CC)S(=O)(=O)c2ccccc21 | -12% | -29%
O=C1CC(c2nc3ccccc3n2CCN2CCOCC2)CN1c1ccccc1 (stereo not given) | -7% | 1%
Cc1ccccc1Cn1nc(C)c(NC(=O)NC2CCCC2)c1C | -4% | -1%
O=C(Cn1c(=O)nc(-c2ccccc2F)c2cc(Cl)ccc21)N1CCN(c2ccccc2F)CC1 | -14% | -12%
CCOc1ccc(-c2cc(OC(=O)c3ccc(OC)cc3)c3c(C)oc(C)c3c(=O)c2)cc1 | -13% | 0%
Cc1occc1-c1nc(-c2cccc(Br)c2)no1 | 2% | 0%
O=C(NCC(c1ccc2c(c1)OCO2)N1CCN(c2ccccc2)CC1)C(=O)Nc1cccc(F)c1 (stereo not given) | -4% | 6%
COc1cccc(C(=O)NCC(=O)O)c1 | -6% | -10%
Cc1cccc(C)c1-n1nnnc1SC(C(=O)N1CCCC1)c1ccccc1 (stereo not given) | 34%[activator] | -3%
O=C(c1cccs1)N(Cc1cccs1)C1CC1 | -5% | -8%
Cc1cc(C)cc(OCCN(C)C(=O)c2cc(=O)[nH]c3ccccc23)c1 | ? | ?
O=C(OCC(=O)N1CCCc2ccccc21)c1ccc2c(c1)S(=O)(=O)c1ccccc1C2=O | -3% | 11%
CCOc1ccc(C(=S)N2CCN(CCO)CC2)cc1OC | 8% | 4%
Cc1c(Cl)cccc1NC(=O)c1cc2nc(-c3ccc4c(c3)OCO4)cc(C(F)(F)F)n2n1 | -4% | -18%
O=C1c2ccccc2S(=O)(=O)N1Cc1nc(-c2ccc(Cl)c(Cl)c2)cs1 | 57%[activator] | 64%[activator]
Cc1ccc(C)c(NC(=O)c2ccc3c(c2)CCCN3S(C)(=O)=O)c1 | 8% | 65%[activator]
O=C(CN1CCC2(CC1)OCCO2)Nc1cc(Cl)cc(Cl)c1 | 5% | 26%
CC(=O)N1CCCN(C(=O)Cc2nc(-c3cccs3)oc2C)CC1 | -7% | -5%
CC(C)NC(=O)/C(C#N)=C\c1ccc(O)cc1 | 8% | 79%[activator]
CCN(CC)CCNC(=O)c1ccc2c(=O)n3nc(Nc4ccccc4)sc3nc2c1 | -7% | -14%
CCS(=O)(=O)N1CCc2cc(C(=O)Nc3ccc(OC)cc3OC)ccc21 | 6% | 12%
CCOC(=O)/C=C/SC(S/C=C/C(=O)OCC)=C(C#N)C(N)=O | ? | ?
O=C(COc1ccc(Cl)cc1)NCC(c1ccco1)S(=O)(=O)c1ccc(Cl)cc1 (stereo not given) | 42%[activator] | -15%

# Additional results follow.
canonical_smiles | StopGo RLuc | StopGo FLuc
O=C(C1CCN(S(=O)(=O)c2ccc(Br)s2)CC1)N1CCN(c2cccc(C(F)(F)F)c2)CC1 | -12% | 4%
CCC(C)c1ccc(NC(=O)CCn2cnc3c2c(=O)n(C)c(=O)n3C)cc1 (stereo not given) | 1% | 3%
CCC(C)Sc1nc2c([nH]c3ccccc32)c(=O)n1C (stereo not given) | -6% | -2%
O=C(Cn1nnc(-c2cccc(C(F)(F)F)c2)n1)NCc1ccc(F)cc1 | -7% | -15%
Cc1cc(C)cc(NC(=O)c2cn3c4c(ccc(Cl)c4c2=O)OC(C)C3)c1 (stereo not given) | -9% | -5%
O=C(CCn1ccc2cc(S(=O)(=O)N3CCCC3)ccc21)NCc1cccc(Br)c1 | 103%[activator] | -1%
CC(=O)c1cccc(NC(=O)Cn2nc(C(F)(F)F)c3c2CCC3)c1 | 4% | -7%
COc1ccc(C(=O)Nc2nnc(S(=O)(=O)N3CCC(C)CC3)s2)cc1OC | 59%[activator] | -9%
Cc1occc1C(=O)Oc1ccc(-c2ccc(C#N)cc2)cc1 | -1%[1.06 µM] | 71%[activator]
CCCCOc1ccccc1C(=O)Nc1ccc(OCC)c2ncccc12 | 24% | 24%
Cc1oc(-c2ccc(Cl)cc2)nc1CN1C(=O)CN=C(c2ccccc2)c2cc(Cl)ccc21 | 12% | -9%
COC(=O)Cn1c(Nc2cccc(C)c2)nc2c1c(=O)n(C)c(=O)n2C | -17% | -8%
O=c1c(S(=O)(=O)c2ccc(Cl)cc2)cn(Cc2ccc(F)cc2)c2ccc(F)cc12 | -6% | 8%
Cc1cccc(NC(=O)c2sc3nc4c(cc3c2N)CN(C(C)C)CC4)c1 | ? | -24%
Cc1cc(S(=O)(=O)Nc2cccc(C(=O)O)c2)c(C)c(S(=O)(=O)c2ccccc2)c1 | -6% | -10%
CCOc1ccc(-n2nnc3c(=O)n(Cc4nc(-c5ccc(SC)cc5)no4)cnc32)cc1 | 18% | 0%
O=C(Nc1ccc(C(=O)OCc2cc(=O)n3c4c(sc3n2)CCCC4)cc1)c1ccccc1 | -4% | -14%
Cc1ccc2c(Cl)cc(Cl)c(OCC(=O)NC3(C#N)CCCCC3)c2n1 | 28% | -11%
COCCn1c(=O)[nH]c2cc(C(=O)N3CCN(c4ccccc4)CC3)ccc2c1=O | -9% | -1%
O=C(/C=C/c1ccc(F)cc1)c1cccc(N2CCOCC2)c1 | 38%[activator] | 188%[activator]
CC(NC(=O)c1ccco1)c1ccccc1OC(F)F (stereo not given) | -8% | 0%
COc1ccccc1CNC(=O)Cn1ccc2cc(Cl)ccc21 | 10% | 16%
CCCCN(C)CCCN1C(=O)c2ccccc2C1C(=O)NC1CCCCC1 (stereo not given) | -15% | -15%
CSc1ccc(C(=O)Nc2cc(C)ccc2F)cc1 | 12% | 199%[activator]
O=C(Nc1nc2ccc(S(=O)(=O)N3CCCC3)cc2s1)c1ccc(F)cc1 | -1% | 5%

# Remaining list, next part:
canonical_smiles | StopGo RLuc | StopGo FLuc
CCCCOc1ccc2c(C)c(CCC(C)C)c(=O)oc2c1 | 5% | 130%[activator]
COc1ccc(OC)c(NC(=O)c2cc(S(=O)(=O)NCCc3ccc(Cl)cc3)ccc2F)c1 | 270%[activator] | -11%
Cc1cc(C(=O)OCC(=O)NC(C)(C)C)c2ccccc2n1 | 4% | 5%
O=C(NCC(c1ccc(F)cc1)N1CCOCC1)c1nn(-c2ccccc2)c(=O)c2ccccc12 (stereo not given) | -10% | -7%
C/C(=N/Nc1ccc(S(N)(=O)=O)cc1[N+](=O)[O-])c1ccccc1Br | -14% | 12%
CCOC(=O)c1sc(N)c(C#N)c1C | -3% | 19%
CC(C)CCn1c(CN(C)Cc2ccccc2)nc2c1c(=O)n(C)c(=O)n2C | ? | ?
Cc1cc(/C=N/O)c(C)n1-c1ccncc1 | -11% | 2%
Cc1ccc(S(=O)(=O)n2nc(C)c(S(=O)(=O)N3CCC(C)CC3)c2C)cc1 | 38%[activator] | -8%
O=C(CSc1nc(=O)n(CCN2CCOCC2)c2c1CCC2)Nc1ccccc1 | -4% | -22%
CCOc1c(CNc2ccc(N3CCOCC3)c(C(=O)O)c2)cccc1OC | -6% | 3%
COc1ccc(-c2c(C)oc3cc(OCCN4CCN(C)CC4)ccc3c2=O)cc1 | -25% | -11%
CCN(CC)c1cc(C)c2cc(NC(=O)c3ccccc3Cl)ccc2n1 | 13% | 72%[activator]
O=c1[nH]c(=O)n(CC2CCCO2)c2nccc(-c3cccc4ccccc34)c12 (stereo not given) | 3% | 4%
CCc1nn2c(=O)cc(COC(=O)c3cccc(NC(=O)COc4ccccc4)c3)nc2s1 | -2% | 9%
COc1ccc(C)cc1-n1nnnc1SCn1nnc2ccccc2c1=O | 16% | 8%
COc1ccc(/C=C(\C#N)C(=O)Nc2cccc(C(F)(F)F)c2)cc1OC | 15% | 4%
Brc1ccc(Nc2c3c(nc4nncn24)CCC3)cc1 | -5% | 25%
COc1ccc(N2CCN(C(=O)c3nc(SC)ncc3Cl)CC2)cc1 | 18% | -13%
CC(=O)c1ccc(S(=O)(=O)N2CCN(C(=O)c3cc(C)n(C(C)C)c3C)CC2)cc1 | -9% | -4%
CN(C(=O)CCc1ccsc1)C1CCCCC1 | 17% | 110%[activator]
O=C(CN1CCN(c2ccccc2F)CC1)NC(=O)NCC(F)(F)F | -8% | -2%
Cn1c(=O)c2c(ncn2CCCOc2ccccc2)n(C)c1=O | -6% | 10%
CC(=O)Nc1ccccc1-c1nc2ccccc2n(CC(=O)Nc2ccc(C)c(Cl)c2)c1=O | 2% | 3%
O=C(O)CNC/C=C/c1ccccc1 | 15% | 35%[activator]

# Other compounds follow.
canonical_smiles | StopGo RLuc | StopGo FLuc
Cc1ccc(C(=O)NCCc2nc3cc(NC(=O)c4ccccc4C)ccc3n2C)cc1F | -4% | 7%
CCc1ccc(S(=O)(=O)N2CCN(C(=O)c3cc(C)on3)CC2)cc1 | 7% | 13%
COc1ccc(OC)c(NC(=O)CCNC(=O)Cn2cnc3ccccc3c2=O)c1 | -9% | -19%
O=C(CSc1n[nH]c(-c2cc(Cl)ccc2Cl)n1)N1CCCC1 | 1% | 14%
Cc1ccc(CNC(=O)c2cc(-c3ccc(C)o3)nc3ccccc23)cc1 | 5% | 37%[activator]
Cc1cccc(NC(=O)N(C)C(c2ccc(Cl)cc2)c2nccn2C)c1 (stereo not given) | 2% | 7%
O=C(NCC(c1ccccc1)c1c[nH]c2ccccc12)c1ccccc1 (stereo not given) | 1% | -9%

# Given with two lines to a compound: four of the compounds above
# Each structure is followed by: StopGo RLuc | StopGo FLuc
O=C(CSc1n[nH]c(-c2cc(Cl)ccc2Cl)n1)N1CCCC1
    1% | 14%
Cc1ccc(CNC(=O)c2cc(-c3ccc(C)o3)nc3ccccc23)cc1
    5% | 37%[activator]
Cc1cccc(NC(=O)N(C)C(c2ccc(Cl)cc2)c2nccn2C)c1 (stereo not given)
    2% | 7%
O=C(NCC(c1ccccc1)c1c[nH]c2ccccc12)c1ccccc1 (stereo not given)
    1% | -9%
